# NS1 function inh – influenza NS1 inhibition; S. cerevisiae slowed by influenza A NS1, growth recovery by OD600; actives 0.4% (n = 270,000); Potency, µM (doses to about 46.1 µM), without a hit: top-dose activity, positive = more growth; further: actives are rising curves; nearly all actives have a fitted effect of over 50% in size
#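 In this qHTS, NS1 from influenza A is expressed in budding yeast, where it slows growth. Cells are switched from glucose to 2% galactose medium (pH 6.0, -URA), treated with compound, and growth recovery is read at OD600.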
# Cruzain inh noDet – inhibitors of Trypanosoma cruzi cruzain without detergent; P25779; purified cruzain, Z-FR-AMC fluorescence, no detergent; Potency, µM, without a hit: max response, negative = inhibition, actives largely listed as inhibitors; actives 2.3% (n = 200,000); AID 1476; active means well fitted curve in the direction sought with a large enough effect; inconclusive means small, poorly fitted or top-dose-only effect, or another doubt; inactive means no such curve, though single readings can be large; an effect the other way counts as inactive or inconclusive;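 further: plate controls were enzyme without inhibitor for no effect and buffer without enzyme for full effect; nearly all actives have a fitted effect of over 40% in size; top concentration of the series not given in the record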
# Target sequence (P25779 123-467 limits assumed): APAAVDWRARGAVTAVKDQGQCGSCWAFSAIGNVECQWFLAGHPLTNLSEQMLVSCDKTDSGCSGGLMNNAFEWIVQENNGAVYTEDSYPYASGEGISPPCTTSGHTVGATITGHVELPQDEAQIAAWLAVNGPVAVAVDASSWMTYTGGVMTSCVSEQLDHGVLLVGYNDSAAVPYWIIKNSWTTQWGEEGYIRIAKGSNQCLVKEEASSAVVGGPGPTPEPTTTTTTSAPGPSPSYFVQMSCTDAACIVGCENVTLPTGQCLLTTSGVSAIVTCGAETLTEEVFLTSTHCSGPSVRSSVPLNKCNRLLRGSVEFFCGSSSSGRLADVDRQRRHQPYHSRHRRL
#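 Detergent-free condition (0.00005% Triton X-100) in acetate buffer pH 5.5 with DTT. 1.5 nM enzyme and compound were pre-mixed 15 min, then 2 uM Z-FR-AMC substrate added; reaction progress from fluorescence change between first and third reads (60 s).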
# RE007 growth inh – less growth of the S. pombe RE007 Vpr strain; S. pombe RE007 Vpr strain, BacTiter-Glo ATP luminescence, 24 h; control for the full effect not named in the record; Potency, µM (highest dose often 92.2 µM), inactives show at the top dose activity change, negative = less growth; actives 0.21% (n = 360,000); active = well fitted falling curve with a large enough effect; inconclusive = small, poorly fitted or top-dose-only effect; inactive = no such curve, though single readings can be large or run the other way;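 further: on the % scale 0 is the no-effect control and ±100 the full control effect; nearly all actives have a fitted effect of over 50% in size; the assay follows cell death caused by Vpr and the record does not say whether a fall means rescue or toxicity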
#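 Fission yeast strain RE007, carrying one chromosomally integrated HIV-1 vpr copy, was seeded at OD 0.01 in PMG+AL medium with 23 nL pinned compound. After 24 h at 30 °C and 99% humidity, viability was read by BacTiter-Glo luminescence.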
# MARV entry inh – Marburg virus entry inhibition; actives 1.8% (n = 300,000); Marburg virus pseudotyped entry inhibition, cell reporter; control for the full effect not named in the record; about a third of the inactives were read at about 46 µM; Potency, µM (titrated, usually from 37.8 µM), without a hit: at the top dose activity change, negative = inhibition, most hits filed as inhibitors; active = well fitted inhibition curve with a large enough effect; inconclusive = small, poorly fitted or top-dose-only effect, or effect the other way; inactive = flat fitted curve, though single readings scatter; tested in HEK293 cells; about a fifth of its hits are not listed in these tables; further: on the % scale 0 is the no-effect control and ±100 the full control effect; luciferase read-out
# LASV entry inh – blocks Lassa virus binding to or entry into cells; AID 540256; actives 1.2% (n = 300,000); Potency, µM (top dose mostly 37.9 µM), without a hit: at the highest dose activity change, negative = inhibition, hits mostly inhibitors; Lassa virus pseudotype entry inhibition, cell reporter; control for the full effect not named in the record; active means well fitted inhibition curve with a large enough effect; inconclusive means small, poorly fitted or top-dose-only effect, or effect the other way; inactive means flat fitted curve, though single readings scatter; tested in HEK293 cells; further: on the % scale 0 is the no-effect control and ±100 the full control effect; nearly all actives have a fitted effect of over 50% in size; luciferase read-out
# 2A StopGo – lowers the luciferase signal of an FMDV 2A StopGo reporter; human cells with a luciferase reporter of 2A StopGo recoding; control for the full effect not named in the record; Potency, µM (titrated, usually from 57.9 µM), for the others: at the top dose signal change, negative = less light; actives 1.2% (n = 410,000); AID 1159524; active = well fitted falling curve with a large enough effect; inconclusive = small, poorly fitted or top-dose-only effect; inactive = no such curve, though single readings can be large or run the other way; tested in HEK293T cells; further: on the % scale 0 is the no-effect control and ±100 the full control effect; nearly all actives have a fitted effect of over 45% in size; luciferase light after 4 h
# SARS PLpro yeast – inhibitors of SARS-CoV papain-like protease in yeast | S. cerevisiae expressing SARS-CoV PLpro, growth rescue; control for the full effect not named in the record | Potency, µM (series often up to 32.9 µM), inactives show at the top dose activity, positive = growth rescue | actives 0.19% (n = 330,000) | AID 485353; further: 0% is about no effect; nearly all actives have a fitted effect of over 55% in size; growth read by luminescence after 48 h
# Cruzain Triton – cruzain (T. cruzi) inhibition with detergent; P25779; purified cruzain, Z-FR-AMC fluorescence, 0.01% Triton; Potency, µM, for the others: max response, negative = inhibition, most hits filed as inhibitors; actives 0.43% (n = 200,000); active means well fitted curve in the direction sought with a large enough effect; inconclusive means small, poorly fitted or top-dose-only effect, or another doubt; inactive means no such curve, though single readings can be large; an effect the other way counts as inactive or inconclusive;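 further: plate controls were neutral wells for no effect and buffer without enzyme for full effect; nearly all actives have a fitted effect of over 40% in size; top concentration of the series not given in the record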
#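 In this qHTS format, compounds are incubated with 1.5 nM cruzain for 15 min at room temperature before 2 uM Z-FR-AMC is added. Release of AMC is followed at 360/450 nm, and progress is taken as the 60 s fluorescence difference.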
# Starred values were filed as active, the others as inactive; ? = inconclusive; · = no result given; & = joins results of further samples; [ ] = remark or other dose. Unless noted, the call rests on the fitted dose curve; in most records, active means well fitted rising curve with a large enough effect; inconclusive means small, poorly fitted or top-dose-only effect; inactive means no such curve, though single readings can be large or run the other way. Potency means the concentration at half of the fitted maximal effect.
entry	compound	2A StopGo	LASV entry inh	RE007 growth inh	NS1 function inh	MARV entry inh	Cruzain inh noDet	Cruzain Triton	SARS PLpro yeast
1	O=C(COc1ccccc1[N+](=O)[O-])Nc1cccc(C(=O)Nc2ccccc2C(=O)O)c1	7%	·	9%	20%	·	·	·	-4%
2	Cc1ccc(NC(=S)NC(=O)/C=C/c2ccc(Cl)cc2)cc1	-2%	14%	-19%	5%	3%	10µM*	0.2%	21%
3	CC(=O)c1sc(NC(=O)CCCOc2ccc(Cl)cc2)nc1C	3%	-25%	-2%	5%	-5%[46.1 µM]	·	·	0%
4	COc1cc(O)oc1C=Nc1ccc(C(=O)O)cc1	1%	-1%	?	·	2%[46.1 µM]	·	·	-5%
5	CNS(=O)(=O)c1ccc(N=Cc2c(O)n(-c3ccc(C)cc3)c(=O)[nH]c2=O)cc1	-16%	?	6%	-2%	-19%	·	·	-1%
6	NC(=O)CC(NC(=O)Cc1cccc2ccccc12)c1ccc(NCc2ccccn2)c([N+](=O)[O-])c1 (stereo not given)	-16%	·	3%	-2%	·	·	·	0%
7	Cc1nc(CC(=O)NNS(=O)(=O)c2ccc(F)c(Cl)c2)cs1	-12%	3%	1%	8%	10%	1%	-1.7%	-4%
8	CC1Oc2ccccc2N(Cc2ccccc2F)C1=O (stereo not given)	·	·	·	-7%	0%	0%	-5.9%	7%
9	Cc1ccc(NC(=O)c2sc(N)nc2-c2ccc([N+](=O)[O-])cc2)c(C)c1	-16%	?	-6%	2%	-12%[46.1 µM]	·	·	0%
10	COC(=O)c1cc(C(=O)Nc2nnc(C3CC3)s2)cc([N+](=O)[O-])c1	-11%	-4%	-8%	?	-3%	?	-4.3%	4%
11	Cc1ccc2[nH]c(=O)c(CN(CC3COCCO3)C(=O)Nc3ccccc3C)cc2c1 (stereo not given)	-21%	·	7%	1%	·	·	·	0%
12	COc1ccc(NC(=O)Nc2ccc(OCC(=O)N3CCOCC3)cc2)cc1OC	·	9%	-7%	-41%	1%	0%	-0.8%	-4%
13	Cc1cccc(-c2nc(SCC(=O)Nc3cccc(C(F)(F)F)c3)n3[nH]c(=O)cc3n2)c1	7%	-2%[46.1 µM]	·	·	·	?	-8.1%	·
14	O=C(NC1(C(F)(F)F)N=C(c2ccccc2)NC1=O)c1ccccc1 (stereo not given)	-15%	-2%	19%	-4%	7%	-3%	-1.5%	9%
15	Cn1ncc2c(N3CCC(Cc4ccccc4)CC3)ncnc21	20µM*	-13%	21%	-8%	1%[46.1 µM]	·	·	0%
16	CCOC(=O)CC(=O)CSc1nc(N)c(C#N)c(-c2ccc(F)cc2)c1C#N	-14%	10%	-1%	22%	-3%&-3%	-16%	-5.4%	4%
17	COc1ccccc1OCCNC(=O)C(c1ccccc1)c1ccccc1	?	·	-2%	1%	·	·	·	2%
18	COc1ccc(S(=O)(=O)N2CCC(C(=O)Nc3ccc(Oc4ccccc4)cc3)CC2)cc1OC	-16%	-1%[46.1 µM]	·	·	13%[46.1 µM]	5%	-3.5%	·
19	Cn1c(NC(=O)c2ccc(F)cc2)nc2ccccc21	54%[activator]	·	-13%	-32%	·	·	·	-2%
20	Cc1[nH]c2ccccc2c1C(=O)CSC(=S)N(C)C	15%	3%	-1%	5%	2%	9%	-5.9%	3%
21	O=C1CSC(=Nc2ccc(O)cc2)N1c1ccc(O)cc1	-14%	-3%	-7%	-3%	?	-2%	1.6%	4%
22	Cc1ccc(-n2ncc3c(NNC(=O)c4ccco4)ncnc32)c(C)c1	11%	-3%	2%	·	-14%	·	·	-1%
23	CC(=O)c1nc(N2C(=O)CC(Cc3cccc(C)c3)C2=O)sc1C (stereo not given)	-24%	-4%	7%	-7%	-2%	-2%	1.2%	-14%
24	CC1(C)OC(=O)N(c2ccccn2)C1(C)O (stereo not given)	-10%	-2%	-21%	5%	13%	-7%	5.4%	0%
25	Cc1ccc(S(=O)(=O)N2CCC(C(=O)Nc3nnc(C45CC6CC(CC(C6)C4)C5)s3)CC2)cc1	·	·	·	6%	-2%	2%	1.6%	2%
26	Cc1cccc(NC(=O)c2sc(NC(=O)c3ccco3)c(C#N)c2C)c1C	·	8%	-7%	-3%	?	-14%	0.6%	-4%
27	Cc1ccc(OCCCn2ccnc2)c([N+](=O)[O-])c1	8%	?	5%	1%	11%	-8%	0.9%	-7%
28	CC1(C)COC(c2ccc3c(c2)OCO3)OC1	23%	17%[46.1 µM]	2%	·	11%[46.1 µM]	·	·	·
29	CC(=O)Nc1cc(NC(C)=O)cc(C(=O)OC(C)C(=O)Nc2ccc(S(=O)(=O)N3CCCC3)cc2)c1 (stereo not given)	-15%	10%	-1%	·	0%[46.1 µM]	·	·	1%
30	CN(C)S(=O)(=O)c1ccc(NC(=O)CN2CCOCC2)cc1	-18%	·	-9%	-1%	·	·	·	6%
31	C/C(CC(=O)Nc1cccc(Cl)c1Cl)=N\NC(=O)C(=O)NC1CCCCC1	-5%	-10%	-1%	16%	-6%[46.1 µM]	·	·	-8%
32	COc1cc(N)c(C(O)c2nccc3cc(OC)c(OC)cc23)cc1OC (stereo not given)	-14%	?	-24%	-2%	?	·	·	1%
33	Cc1cc(-c2ccccc2)n2nc(-c3cccc(Br)c3)cc2n1	-16%	?	·	·	8%[46.1 µM]	?	-4.2%	·
34	COc1ccc(C2/C=C\CN(C(=O)C3CC3)[C@H](Cc3ccccc3)C(=O)N2Cc2ccc(F)cc2)cc1 (stereo not given in full)	0%	·	-5%	-4%	·	·	·	-11%
35	O=C(CCn1c(=O)[nH]c2ccccc2c1=O)N1CCN(c2cccc(C(F)(F)F)c2)CC1	?	-4%	8%	-42%	?	?	-7.7%	3%
36	COC(=O)c1csc(S(=O)(=O)N2CCCCC2)c1OC	-8%	·	-15%	-1%	·	·	·	0%
37	COc1ccc(NC(=S)NC(=O)/C=C/c2ccc(F)cc2)cc1	-13%	·	-6%	0%	·	·	·	0%
38	COc1ccc(CCNC(=O)COC(=O)C2CC2)cc1	-9%	?	3%	·	?	·	·	-3%
39	CC(=O)NC(NC(=S)Nc1ccc(S(N)(=O)=O)cc1)C(Cl)(Cl)Cl (stereo not given)	-20%	·	2%	4%	·	·	·	0%
40	CC(C)C(NS(=O)(=O)c1ccccc1F)C(=O)N1CCc2ccccc2C1 (stereo not given)	5%	-24%	-11%	19%	-16%[46.1 µM]	·	·	0%
41	O=S(=O)(CCc1ccccc1)N1CCOCC1	-6%	2%	-11%	6%	5%	3%	3.9%	1%
42	CCCN(c1ccc(C)cc1)c1nc(=O)c2cccnc2s1	-17%	-8%	5%	2%	-14%	·	·	-1%
43	Cc1ccc(N2CCN(CC(=O)Nc3c(C(=O)C4CC4)oc4ccccc34)CC2)cc1	·	·	·	3%	·	-5%	0.9%	6%
44	COc1ccc(CNC(=O)COC(=O)c2cc(-c3cccs3)nc3ccccc23)cc1OC	?	24%	-3%	28%	?	?	0.0%	-13%
45	C=CCNC(=S)Nc1cc(C)ccn1	-7%	-2%	-25%	·	5%[14.2 µM]	·	·	24%

# Entries 1 to 11 of the list above:
entry	compound	2A StopGo	LASV entry inh	RE007 growth inh	NS1 function inh	MARV entry inh	Cruzain inh noDet	Cruzain Triton	SARS PLpro yeast
1	O=C(COc1ccccc1[N+](=O)[O-])Nc1cccc(C(=O)Nc2ccccc2C(=O)O)c1	7%	·	9%	20%	·	·	·	-4%
2	Cc1ccc(NC(=S)NC(=O)/C=C/c2ccc(Cl)cc2)cc1	-2%	14%	-19%	5%	3%	10µM*	0.2%	21%
3	CC(=O)c1sc(NC(=O)CCCOc2ccc(Cl)cc2)nc1C	3%	-25%	-2%	5%	-5%[46.1 µM]	·	·	0%
4	COc1cc(O)oc1C=Nc1ccc(C(=O)O)cc1	1%	-1%	?	·	2%[46.1 µM]	·	·	-5%
5	CNS(=O)(=O)c1ccc(N=Cc2c(O)n(-c3ccc(C)cc3)c(=O)[nH]c2=O)cc1	-16%	?	6%	-2%	-19%	·	·	-1%
6	NC(=O)CC(NC(=O)Cc1cccc2ccccc12)c1ccc(NCc2ccccn2)c([N+](=O)[O-])c1 (stereo not given)	-16%	·	3%	-2%	·	·	·	0%
7	Cc1nc(CC(=O)NNS(=O)(=O)c2ccc(F)c(Cl)c2)cs1	-12%	3%	1%	8%	10%	1%	-1.7%	-4%
8	CC1Oc2ccccc2N(Cc2ccccc2F)C1=O (stereo not given)	·	·	·	-7%	0%	0%	-5.9%	7%
9	Cc1ccc(NC(=O)c2sc(N)nc2-c2ccc([N+](=O)[O-])cc2)c(C)c1	-16%	?	-6%	2%	-12%[46.1 µM]	·	·	0%
10	COC(=O)c1cc(C(=O)Nc2nnc(C3CC3)s2)cc([N+](=O)[O-])c1	-11%	-4%	-8%	?	-3%	?	-4.3%	4%
11	Cc1ccc2[nH]c(=O)c(CN(CC3COCCO3)C(=O)Nc3ccccc3C)cc2c1 (stereo not given)	-21%	·	7%	1%	·	·	·	0%

# Next section:
entry	compound	2A StopGo	LASV entry inh	RE007 growth inh	NS1 function inh	MARV entry inh	Cruzain inh noDet	Cruzain Triton	SARS PLpro yeast
46	Cc1nn2c(=O)cc(COC(=O)c3ccc(S(=O)(=O)N4CCCCC4)cc3)nc2s1	-17%	-3%	5%	0%	12%	1%	0.1%	-5%
47	Nc1ccc(-c2nc3ccc(-c4nc5ccc(N)cc5[nH]4)cc3[nH]2)cc1	0%	?	·	-18%	?	25µM*	14µM*	·
48	COn1c(SCC(N)=O)nc2ccccc2c1=O	6%	9%	14%	16%	11%	-13%	1.0%	19%
49	CN(Cc1c(F)cccc1Cl)c1ccc(S(=O)(=O)N2CCOCC2)cn1	?	-21%	0%	-51%	24%	23%	-8.5%	-24%
50	COc1cc(NC(=O)CCN2CCOCC2)cc(OC)c1	-2%	?	-13%	-2%	4%	·	·	-7%

# Screening results: PubChem, National Center for Advancing Translational Sciences (NCATS)
